Screening results from PubChem BioAssay.
TSHR agonist = activates the human thyroid stimulating hormone receptor. P16473. HEK293-CNG-TSHR cells (CNG channel as cAMP sensor), membrane potential dye, cAMP. Potency, µM (highest dose often 57.1 µM), without a hit: top-dose activation, hits mostly activators. 73,000 tested, 0.48% active; active = well fitted activation curve of enough size with the parental cells flat; inconclusive = any curve in the parental cells; inactive = parental cells flat and receptor cells flat or falling; note: potency is the fitted concentration of half-maximal effect; % of control where 0% means no effect; weak receptor curves with flat parental cells got no call and are not listed
Target sequence (P16473 whole entry, looked up): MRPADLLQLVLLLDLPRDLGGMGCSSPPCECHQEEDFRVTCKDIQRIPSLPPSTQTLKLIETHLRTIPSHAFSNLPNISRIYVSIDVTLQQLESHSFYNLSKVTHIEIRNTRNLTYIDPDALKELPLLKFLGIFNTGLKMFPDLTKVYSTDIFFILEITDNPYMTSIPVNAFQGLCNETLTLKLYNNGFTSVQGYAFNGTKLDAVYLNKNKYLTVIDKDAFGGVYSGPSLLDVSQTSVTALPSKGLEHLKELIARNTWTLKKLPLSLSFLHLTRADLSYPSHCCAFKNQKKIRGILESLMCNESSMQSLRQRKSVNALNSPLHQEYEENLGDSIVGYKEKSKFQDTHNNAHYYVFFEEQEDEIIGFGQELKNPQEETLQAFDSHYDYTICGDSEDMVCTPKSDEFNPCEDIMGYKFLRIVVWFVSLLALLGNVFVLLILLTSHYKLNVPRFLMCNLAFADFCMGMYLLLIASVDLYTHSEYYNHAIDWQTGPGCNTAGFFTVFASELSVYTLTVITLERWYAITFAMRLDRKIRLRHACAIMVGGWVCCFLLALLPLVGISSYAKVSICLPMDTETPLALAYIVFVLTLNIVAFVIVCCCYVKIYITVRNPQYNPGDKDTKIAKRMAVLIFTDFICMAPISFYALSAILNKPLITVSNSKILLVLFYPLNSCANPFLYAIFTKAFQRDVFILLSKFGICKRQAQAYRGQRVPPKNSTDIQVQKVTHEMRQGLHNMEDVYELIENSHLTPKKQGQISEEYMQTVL
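HEK 293 cells stably expressing TSHR and a cAMP-gated CNG channel; parental CNG-only cells as counterscreen. Cells preloaded 60 min with membrane potential dye plus 100 uM RO 20-1724, then compound 30 min; fluorescence read at 590 nm.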
Resorufin fluor = compound fluoresces in the resorufin spectral region; Compound fluorescence, resorufin region 547/598 nm, buffer; active compounds read high; max dye-equivalent concentration, M; 59,000 tested, 0.04% active; AID 588; active = above 10 nM dye equivalent; inconclusive = 1 to 10 nM; inactive = 1 nM or less; a few of its hits are not listed in these tables; note: highest value over a series up to 38 µM
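Read-out: intrinsic compound fluorescence at ex 547/em 598 nm after 15 min at RT in pH 8.0 Tris (100 mM). Values expressed as resorufin-equivalent concentration from per-plate standard series.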
AID923 = qHTS Assay for Allosteric/Competitive Inhibitors of Caspase-1: Spectroscopic Profiling in AFC Spectral Region; Potency, µM (highest dose often 57.5 µM), for the others: at the top dose fluorescence increase, actives largely listed as activators; 75,000 tested, 1.1% active; compound fluorescence, AFC spectral region (405/520 nm); almost no hit is shown here; active = well fitted activation curve with a large enough effect; inconclusive = small, poorly fitted or top-dose-only effect;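 note: potency is the fitted concentration of half-maximal effect; 0% is about no effect; scaled to a free AFC standard on each plate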
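Compound autofluorescence profiled at 405 nm ex/520 nm em during kinetic caspase 1 run (50 nM enzyme, 5 uM Ac-WEHD-AFC, HEPES pH 7.5, 10 mM DTT). Titration up to 57 uM; baseline from regression intercept, normalized to AFC standard curve.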
A647 fluor = A647 region autofluorescence; Compound fluorescence, A647 channel (570/671 nm), Tris buffer; max dye-equivalent concentration, M; 59,000 tested, under 10 active; AID 592; active means above 1 µM dye equivalent; inconclusive means 0.1 to 1 µM; inactive means 0.1 µM or less;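 note: values scaled relative to a standard on each plate; highest value over a series up to 38 µM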
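Compound fluorescence was measured in 100 mM Tris buffer, pH 8.0, after 15 min at room temperature, using 570 nm excitation and 671 nm emission filters. Signal was normalized to a per-plate Alexa 647 standard curve and expressed as dye-equivalent concentration at each compound concentration.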
A488 autofl = A488 region autofluorescence | compound autofluorescence, A488 spectral region, dye equivalency; active compounds read high | max dye equivalency, M | 59,000 tested, 0.1% active | AID 591; active = above 10 nM dye equivalent; inconclusive = 1 to 10 nM; inactive = 1 nM or less; about half of its hits are not listed in these tables;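 note: highest value over a series up to 38 µM; compound alone in buffer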
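Autofluorescence read at ex 480/em 540 nm after 15 min RT in 100 mM Tris pH 8.0; compound signal normalized to A488 standard series on each plate, reported as dye-equivalent concentration at each test concentration.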
An asterisk follows results filed as active; i = inactive; ? = inconclusive; · = no result given; & = joins results of further samples; [ ] = dose if it differs, or a comment.

SMILES	TSHR agonist	Resorufin fluor	AID923	A647 fluor	A488 autofl
Oc1cc(O)c2c(c1)O[C@H](c1ccc(O)c(O)c1)[C@H](O)C2	?	i	-1.1%[25.7 µM]	6.1e-09&1e-09&4.6e-08	i
CC1(C)Cc2c(sc3nc(SCC(=O)N4CCOCC4)nc(N)c23)CO1	?	i	0.2%	1.5e-09	i
O=S(=O)(c1ccc2ccccc2c1)N1CCCOC1	2%	i	-0.3%	2.4e-08	i
Cc1ccc(C)c(Cn2nnc3c(=O)[nH]c(C(=O)NCC4CCCO4)nc32)c1 (stereo not given)	?	i	0.6%	1.8e-08	i
COc1ccc(CCNC(=O)c2c(-c3ccccc3)noc2C)cc1OC	-4%	·	-0.3%	·	·
CN(C)CCNC(=O)c1ccc(CS(=O)(=O)c2c(Cl)cccc2Cl)o1	0%	·	3.2%	·	·
COc1cc(C(=O)N(Cc2ccco2)Cc2cc3ccccc3[nH]c2=O)cc(OC)c1OC	6%	i	-0.1%	5.4e-09	i
Cn1nc(CC(=O)Nc2ccc3c(c2)OCCO3)c2ccccc2c1=O	7%[11.4 µM]	i	0.5%	8.5e-09	i
CCOC(=O)N1CCN(C(=O)C2CCCN(c3nc4ccc(OCC)cc4s3)C2)CC1 (stereo not given)	-3%	·	-3.6%	·	·
CCCCCCN(C(=O)CCCCCN1C(=O)NC(C2CC2)C(C(=O)OCc2ccccc2)=C1C)C(C(=O)NCCCC)c1ccc(OCC(=O)OC)c(C(=O)OC)c1 (stereo not given)	8%	·	3.8%	·	·
Cc1ccc(Br)cc1	3%	·	0.0%	·	·
Cc1cc(NC(=O)CSc2nc3c(c(-c4cccnc4)c2C#N)CCC3)no1	12%[11.4 µM]	·	4.4%	·	·
CS(=O)(=O)N(CC(=O)Nc1cccc(F)c1)Cc1ccccc1	6%	i	-0.2%	2.5e-08	i
O=C(NC1CCCCC1)[C@H](O)[C@@H](O)C(=O)NC1CCCCC1	·	i	·	3.7e-08	i
COc1ccc2c(c1)cc(C)c1nnc(SCC(=O)N3CCN(C(=O)c4ccco4)CC3)n12	19%	i	-0.2%	2.9e-09	i
O=C(Nc1cccc(Cn2cccn2)c1)c1cc2c(s1)CCCC2	·	i	0.9%	1e-09	i
CCc1nnc(NC(=O)C2CCCN2S(=O)(=O)c2ccccc2)s1 (stereo not given)	2%	i	1.3%	2.8e-08	i
O=C1CN(C(=O)CSc2nnc(-c3ccccc3)n2Cc2ccc3c(c2)OCO3)c2ccccc2N1	10%	i	-0.5%	1.4e-09	i
Cc1cc(C)n(C(=O)c2ccc(NC(=O)C3CC3)cc2)n1	-11%	·	4.1%	·	·
CCCS(=O)(=O)N1CCCC(C(=O)NCCN(CC)c2ccccc2)C1 (stereo not given)	-1%	i	1.2%	4.2e-09	i
O=C(CN1CCOc2ccccc21)NC1CCN(Cc2ccccc2)CC1	7%	·	2.0%	·	·
Cc1cc(C(=O)Nc2c(C)n(C)n(-c3ccccc3)c2=O)cs1	?	i	2.6%	3.3e-08	i
CCn1c(N2CCN(S(=O)(=O)c3ccccc3C(F)(F)F)CC2)nc2ccccc21	?	i	-1.6%	5.9e-08	i
Nc1ccc(S(=O)(=O)Nc2nccs2)cc1	2%	i	1.1%	4.1e-09	i
O=C(c1c[nH]c(=O)n(-c2ccccc2)c1=O)N1CCc2ccccc21	16%	i	1.8%	1e-09	i
FC(F)Sc1ccc(Nc2ncnc3nc[nH]c23)cc1	2%[11.4 µM]	i	-0.5%	2.9e-08	i
CC(C)(C)C(=O)/C(C#N)=c1\s/c(=C\c2ccncc2)c(=O)n1CCCN1CCOCC1	2%	i	1.5%	1e-09	i
Cn1cc(S(=O)(=O)NCc2cccs2)c(=O)n(C)c1=O	?	·	-3.0%	·	·
CC(=O)NCCn1c(SCC(=O)NCCC2=CCCCC2)nc2ccccc2c1=O	13%	i	-0.5%	1.4e-08	i
COCCn1c(C(=O)N2CCCC2)cc2c1C[C@H]1CN(C(=O)c3ccccc3)[C@@](Cc3ccc(F)cc3)(C(=O)OC)[C@@H]21	?	·	-1.2%	·	·
O=C(Nc1cccc(C(F)(F)F)c1)N1CCC(c2nc(-c3ccc(F)cc3)no2)CC1	3%	i	0.5%	1e-09	i
O=S(=O)(NCCc1cn2ccccc2n1)c1ccc2c(c1)OCCO2	-4%	·	-0.9%	·	·
O=C(Cc1ccc(Br)cc1)N1CCN(c2ccccc2)CC1	6%	i	-2.8%	6.6e-09	i
O=C(Nc1ccccc1)c1ccc(S(=O)(=O)NCC2CCCO2)cc1 (stereo not given)	11%	i	-0.5%	1e-09	i
COC(=O)c1cc2occc2n1CC(=O)Nc1ccc(C)cc1C	?	i	4.0%	1e-09	i
O=S(=O)(c1ccccc1)c1nc(-c2ccco2)oc1NCCCn1ccnc1	13%	i	3.2%	1e-09	i
CCCc1cc(C(=O)Nc2ccc(C(C)=O)cc2)no1	3%	·	-2.3%	·	·
CSc1oc(-c2ccccc2)nc1C(N)=O	1%	i	-1.2%	7.4e-09	i
CC(c1ccccc1)n1c(NCCCn2ccnc2)nc2c1c(=O)[nH]c(=O)n2C (stereo not given)	-3%	i	0.1%	2e-08	i
COc1ccc(CCNc2c(C)c(C)nc3ncnn23)cc1	?	i	-0.4%	4.3e-09	i
CCn1c(C)csc1=NC(=O)c1ccccc1	3%[11.4 µM]	i	-0.7%	4.3e-08	i
O=C(NCc1ccco1)C(c1ccccc1)N(CC1CCCO1)C(=O)Cn1nnc2ccccc21 (stereo not given)	0%	i	0.1%	3.4e-08	i
O=S(=O)(Nc1ncccc1O)c1ccc(Cl)cc1	?	i	0.1%	5.8e-09	i
CCCCS(=O)(=O)/C=C\C=C/S(=O)(=O)CCCC	3%	i	0.5%	1.5e-08	i
Cc1ccc(S(=O)(=O)C(C#N)c2nc3ccccc3nc2N2CCCCC2)cc1 (stereo not given)	1%	·	4.9%	·	·
CS(=O)(=O)Nc1ccccc1C(=O)NC1CC2CCC1C2 (stereo not given)	·	i	-0.3%	1e-09	i
CCSC1=C(C#N)C(c2ccccc2Cl)CC(=O)N1 (stereo not given)	25%	·	-1.5%	·	·
CCOC(=O)c1c(N)sc2c(NC(C)=O)cccc12	·	i	1.5%	2.8e-08	i
Cc1occc1C(=O)N1CCN(S(C)(=O)=O)CC1	0%	i	0.1%	1.4e-08	i
NCCSc1nc2ccccc2s1	-6%[11.4 µM]	i	2.9%[11.5 µM]	6.3e-09	i
O=S(=O)(Nc1nccs1)c1cc(Cl)ccc1Cl	1%	i	0.0%	1e-09	i
Cc1ccc(-c2csc3nnc(SCC(=O)N4CCN(Cc5ccccc5)CC4)n23)cc1	11%	i	-0.9%	1.3e-08	i
O=C(O)CCn1cnc2ccccc2c1=O	3%	i	-2.9%	7.8e-09	i
CC1(C(=O)NC2CCCC2)CCC(=O)N1Cc1ccccc1 (stereo not given)	-2%	i	-0.8%	2.7e-08	i
O=C(Nc1ccc(N2CCN(Cc3ccccc3)CC2)cc1)c1ncn[nH]1	-3%	i	-1.3%	2.3e-09	i
CS(=O)(=O)N(CC(=O)NCCC1=CCCCC1)C1CCCCC1	7%	i	-2.2%	2.3e-08	i
CCOc1ccc(C(=O)NCc2ccncc2)cc1OCC	4%	·	3.7%	·	·
Cc1cc(C(=O)OCC(=O)c2ccc(Br)s2)no1	6%	i	-0.7%	1e-09	i
O=C(CSc1nc2ccccc2c(=O)n1CCCC(=O)N1CCCC1)NCc1ccco1	-11%	i	-0.5%	1.9e-09	i
COCc1cc(C)nc(NC2CCCCC2)c1C#N	24%	i	-0.6%	4.3e-09	i
Following part
SMILES	TSHR agonist	Resorufin fluor	AID923	A647 fluor	A488 autofl
COc1ccc(NS(=O)(=O)Cc2ccccc2Cl)cn1	?	i	1.3%	2e-09	i
C=CCNC(=O)C1CC(=O)N(c2ccc(OCC(=O)Nc3ccccc3)cc2)C1 (stereo not given)	-1%	i	13%	7.7e-09	i
C=CCn1c(=O)/c(=C/c2ccc(C)o2)s/c1=C(/C#N)C(=O)c1ccccc1	-8%	i	8.5%	2.2e-08	?
CC1CC(C)CN(C(=O)Cn2c(=O)n(CCCCC(=O)NC3CCCC3)c(=O)c3ccccc32)C1 (stereo not given)	·	i	-0.9%	2.2e-09	i
COc1ccc(NC(=O)C23CCC(C)(C(=O)C2)C3(C)C)cc1 (stereo not given)	-1%	·	0.1%	·	·
CC(=O)N1CCc2cc(S(=O)(=O)NCCC(=O)NC3CCCc4ccccc43)ccc21 (stereo not given)	-1%	i	1.9%	1e-09	i
Cc1cc(C)c2cc(CN(CCN3CCCC3)C(=O)Nc3ccc(F)cc3)c(=O)[nH]c2c1	16%	i	1.7%	3.7e-09	i
CCOc1cc(C)c(S(=O)(=O)NC2CCCCC2)cc1C	·	i	-2.9%	3.3e-08	i
COc1ccc2c(c1)CCc1c(C(=O)NCc3ccco3)noc1-2	14%	i	1.3%	4e-08	i
COc1ccc(-n2c(Cc3cc(=O)[nH]c(=O)[nH]3)nnc2SCC(=O)Nc2ccccc2)cc1	1%	·	-1.7%	·	·
Cc1cc2n(n1)C(c1ccc3c(c1)OCO3)Nc1c(C)cccc1-2 (stereo not given)	-17%	i	-0.1%	3.5e-08	i
Cc1cc(C(=O)CSc2nc3ccccc3[nH]2)c(C)n1C	6%	i	-0.5%	3.3e-08	i
O=C1C=C(NCc2ccco2)C2(CCCCC2)O1	?	·	1.9%	·	·
Cc1[nH]c(=O)[nH]c(=O)c1CSc1nnc(CCCCCNC(=O)OC(C)(C)C)o1	8%	i	-1.0%	1e-08	i
COc1ccccc1OCCCCNC(C)(C)C	-1%	·	0.3%	·	·

Looked up above.
Under AID923, COCc1cc(C)nc(NC2CCCCC2)c1C#N has the entry -0.6%
Under TSHR agonist, Cc1[nH]c(=O)[nH]c(=O)c1CSc1nnc(CCCCCNC(=O)OC(C)(C)C)o1 has the entry 8%
Under TSHR agonist, O=S(=O)(Nc1nccs1)c1cc(Cl)ccc1Cl has the entry 1%
Under AID923, O=S(=O)(c1ccccc1)c1nc(-c2ccco2)oc1NCCCn1ccnc1 has the entry 3.2%
Under AID923, CN(C)CCNC(=O)c1ccc(CS(=O)(=O)c2c(Cl)cccc2Cl)o1 has the entry 3.2%

Given with each value named: 2 of the compounds above
> CC1CC(C)CN(C(=O)Cn2c(=O)n(CCCCC(=O)NC3CCCC3)c(=O)c3ccccc32)C1 (stereo not given)
  TSHR agonist: ·; Resorufin fluor: i; AID923: -0.9%; A647 fluor: 2.2e-09; A488 autofl: i

> COc1ccc(NC(=O)C23CCC(C)(C(=O)C2)C3(C)C)cc1 (stereo not given)
  TSHR agonist: -1%; Resorufin fluor: ·; AID923: 0.1%; A647 fluor: ·; A488 autofl: ·

(listing goes on)
SMILES	TSHR agonist	Resorufin fluor	AID923	A647 fluor	A488 autofl
O=C(CCc1nc2ccccc2[nH]1)N1CCc2ccccc2C1	-3%	·	2.5%	·	·
COC(=O)CCC(=O)COc1ccccc1C#N	·	i	0.3%	2.4e-08	i
Cc1cc(C)nc(N2CCCC(C(=O)Nc3cc(F)ccc3C)C2)n1 (stereo not given)	2%	i	-2.3%	6e-08	i
O=C(NCc1ccc(Cl)cc1)c1cc(-c2cccs2)on1	-19%	i	-0.9%	4.7e-08	i
C=CCOc1c(Cl)cc(/C=N/O)cc1OC	7%[11.4 µM]	·	0.4%	·	·
CCCOc1ccc2c3c(c(=O)oc2c1)CCCC3	?	i	1.4%	3.3e-09	i
Cc1c(S(=O)(=O)N2CCN(c3cccc(C(F)(F)F)c3)CC2)c(=O)n(C)c(=O)n1C	-1%	·	3.9%	·	·
Cc1noc(C)c1-c1nc(NC2CCNCC2)c2ccccc2n1	1%	i	3.1%	1.7e-08	i
C/C(=C1/SC(N2CCOCC2)=NC1=O)c1ccc(Br)cc1	9%	·	0.6%	·	·
CC(C)N(Cc1nc(-c2ccccc2)no1)C(=O)C(C)(C)C	16%	i	-6.4%	1.2e-08	i
CC(Sc1ccc(Br)cc1)C(N)=O (stereo not given)	6%	i	-1.1%	1e-09	i
NC(=O)c1ccccc1O	?	·	0.8%	·	·

The list is partial, so the mix of outcomes need not match the whole.
